Bioassay records as filed in PubChem BioAssay.
KCNQ2 inh = KCNQ2 potassium channel inhibitors, primary screen, cell-based, CHO-K1, FluxOR thallium flux, B-score (AID 2156) | O88943 | 20 min; hits give low values; only compounds with negative scores are shown here; some inactives read as strong as hits | B-score at 10 µM | hit rate 1.1% among 310,000;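 active means fluorescence ratio B-score at most minus 3 library SDs, with starting brightness B-score within 2 library SDs, cut at about -5.5 in these data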
Target sequence (O88943 whole entry, looked up): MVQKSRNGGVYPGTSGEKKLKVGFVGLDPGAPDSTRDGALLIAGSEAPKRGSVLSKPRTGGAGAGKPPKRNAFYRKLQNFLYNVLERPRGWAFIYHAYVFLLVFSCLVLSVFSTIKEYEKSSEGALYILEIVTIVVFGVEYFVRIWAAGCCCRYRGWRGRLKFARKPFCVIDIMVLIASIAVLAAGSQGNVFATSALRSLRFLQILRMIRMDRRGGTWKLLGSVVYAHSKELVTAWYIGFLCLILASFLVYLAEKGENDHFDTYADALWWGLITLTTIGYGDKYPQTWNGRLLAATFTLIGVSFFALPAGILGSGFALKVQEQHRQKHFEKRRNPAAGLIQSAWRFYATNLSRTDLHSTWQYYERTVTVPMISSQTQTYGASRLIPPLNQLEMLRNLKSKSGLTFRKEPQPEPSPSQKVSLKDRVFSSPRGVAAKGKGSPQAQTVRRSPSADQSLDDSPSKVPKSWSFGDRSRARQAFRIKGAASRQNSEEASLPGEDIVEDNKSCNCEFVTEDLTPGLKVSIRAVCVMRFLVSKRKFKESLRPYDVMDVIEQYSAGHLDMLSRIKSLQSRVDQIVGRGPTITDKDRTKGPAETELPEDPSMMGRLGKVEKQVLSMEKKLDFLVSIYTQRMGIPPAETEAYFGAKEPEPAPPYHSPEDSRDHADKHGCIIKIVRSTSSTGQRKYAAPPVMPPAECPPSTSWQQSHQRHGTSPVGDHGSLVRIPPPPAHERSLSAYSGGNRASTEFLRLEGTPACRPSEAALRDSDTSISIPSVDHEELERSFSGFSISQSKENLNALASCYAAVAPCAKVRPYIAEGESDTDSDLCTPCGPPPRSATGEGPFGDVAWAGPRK
KCNQ2 inh baseline = also measured in KCNQ2 inh; calls as there; B-score; measured here: initial fluorescence intensity artifact check;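 brightness before thallium and not channel activity; 0 = typical well and far values either way flag optical interference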
Starred values were filed as active, the others as inactive; i = inactive. The list is partial, so the mix of outcomes need not match the whole.

KCNQ2 inh	KCNQ2 inh baseline	mol
i	1.4	Cc1ccc(NC(=O)CN2C(=O)NC(C)(CCc3ccccc3)C2=O)cc1 (stereo unspecified)
i	1.2	COc1cccc(OC)c1C(=O)NC(=S)Nc1ccc2c(c1)OCCO2
i	0.67	Cc1ccc(S(=O)(=O)NCC(=O)N2CCN(c3ccccc3F)CC2)cc1
i	0.12	CC(C)c1ccc(NS(=O)(=O)c2ccc3c(c2)oc(=O)n3C)cc1
i	1.5	CCOC(=O)CSc1nnc(CNC(=O)c2ccco2)n1-c1ccc(F)cc1
i	-0.01	CCOc1ccccc1N(CC(=O)N1CCOCC1)S(=O)(=O)c1ccccc1
i	0.76	CCOc1ccc2c(=O)c(-c3ccc4c(c3)OCCCO4)c(C)oc2c1
i	-0.14	Cc1nnc(NC(=O)c2ccc3ccccc3n2)s1
i	0.55	CCOc1ccc(OCCCCOc2ccccc2C(C)=O)cc1
i	-0.53	COc1cccc(CNC(=O)C(=O)NCCC2CCCCN2S(=O)(=O)c2ccc(C)cc2)c1 (stereo unspecified)
i	1	CN1CCN(CC(=O)Nc2c(C(=O)c3ccccc3)oc3ccccc23)CC1
i	-0.05	COc1ccc(NC(=O)c2ccc3ncsc3c2)c2ccccc12
i	-0.06	COCCCC1CCN(C(=O)C2CCC(=O)N(CC3CCCCC3)C2)CC1 (stereo unspecified)
i	24	Cn1c(=O)c(Nc2ccc(Cl)cc2)c2c3c(cccc31)C(=O)c1ccccc1-2
i	-1.7	Cc1cccc(C)c1NC(=O)COC(=O)c1ccccc1Nc1ccccc1
i	1	Cc1ccccc1N(CC(=O)N/N=C/c1ccc(Cl)cc1)C(=O)c1ccccc1
i	-2.3	COc1ccc(NC(=O)CN(c2ccc(C)cc2)S(=O)(=O)c2c(C)nn(C)c2C)cc1
i	-1.5	O=C(OCCNC(=O)c1ccc2ccccc2n1)c1cccnc1
i	-0.24	COc1cc2cc(CN(CCc3cccc(C)c3)C(=S)NCCCN(C)C)c(=O)[nH]c2cc1OC
i	-0.81	Cc1cc(C)nc(Nc2nc(-c3ccccc3)cs2)n1

Full records as entered above:
`Cc1cccc(C)c1NC(=O)COC(=O)c1ccccc1Nc1ccccc1` in the list: KCNQ2 inh: i; KCNQ2 inh baseline: -1.7
`Cc1ccccc1N(CC(=O)N/N=C/c1ccc(Cl)cc1)C(=O)c1ccccc1` in the list: KCNQ2 inh: i; KCNQ2 inh baseline: 1

Further compounds.
KCNQ2 inh	KCNQ2 inh baseline	mol
i	-1.2	Cc1ccccc1Nc1nnc(SCC(=O)NCc2cccs2)s1
i	0.94	O=C(COC(=O)C12CC3CC(CC(Br)(C3)C1)C2)Nc1cccnc1Cl
i	-0.61	Cc1cc(NC(=O)C(C)Oc2ccc(Cl)cc2Cl)no1 (stereo unspecified)
i	1.2	O=C(NCC1CCCO1)c1ccccn1 (stereo unspecified)
i	-0.16	COc1cc(/C=N/NC(=O)c2cc(C34CC5CC(CC(C5)C3)C4)[nH]n2)ccc1O
i	1.2	O=C(CN1C2CCCC1CC(NC(=O)C1CCCCC1)C2)Nc1ccccc1 (stereo unspecified)
i	0.74	Cc1cc(=O)n2c(C)n[nH]c2n1
i	-0.78	COc1ccc(OC)c(S(=O)(=O)NCC(=O)O)c1
i	0.19	O=C1COc2ccc(C(=O)COC(=O)CNC(=O)c3ccccc3)cc2N1
i	-0.38	COC(=O)COc1ccc(S(=O)(=O)NCc2ccc3c(c2)OCO3)cc1
i	0.52	CN(C)S(=O)(=O)c1cccc(NC(=O)CCc2nc3cc(S(=O)(=O)N4CCOCC4)ccc3n2C)c1
i	-1.6	CCCCC[C@H]1CN(Cc2ccccc2)C(=O)[C@@H]1CC(=O)NCc1ccccc1
i	0.74	CC(C)C(=O)Nc1nnc(SCC(=O)NCc2ccc3c(c2)OCO3)s1
i	0.18	CCCCN(C)c1c(N2CCC(C(=O)OCC)CC2)c(=O)c1=O
i	-0.02	CC(=O)c1ccc(NC(=O)c2ccc(C)c(S(=O)(=O)N3CCOCC3)c2)cc1
i	0.56	O=C1C(Cl)=C(Nc2ccccc2O)C(=O)N1CCc1ccccc1
-7.5*	-0.27*	COC1(OC)C(/C=C/c2ccc(C)cc2)C(C#N)(C#N)C1(OC)OC (stereo unspecified)
i	0.22	CC1Cc2nc(SCC(=O)Nc3nccs3)n(Cc3ccccc3)c(=O)c2S1 (stereo unspecified)
i	0.05	OCCC1CN(C/C(Cl)=C/c2ccccc2)CCN1C1CCCC1 (stereo unspecified)
i	2.9	CC1=C(CC(=O)c2ccc(Cl)cc2)C(=O)c2ccccc2C1=O
i	1.3	COc1ccc(NC(=O)CC2C(=O)N(c3ccccc3)C(=O)N2CCc2cccs2)cc1 (stereo unspecified)
i	-1.4	COc1cccc(-n2c(=O)c3sccc3n(CC(=O)NC3CCCC3)c2=O)c1
i	-0.55	S=C(Nc1ccc2c(c1)OCO2)Nc1ccccc1Cl
i	1.1	COc1ccc(CNC(=O)COc2ccc(S(=O)(=O)N3CCOCC3)cc2C)cc1
i	-1.9	Cc1ccc(NC(=S)N(CCN2CCCCC2)Cc2ccco2)cc1Cl
i	1.2	COc1ccccc1C(=O)NCCCn1cc(Br)c(C)n1
i	1.6	Clc1ccccc1C1=CC(c2ccco2)n2ncnc2N1 (stereo unspecified)
i	0.86	COc1cccc(-n2c(SCC(=O)NCCc3ccccc3)nnc2-c2ccoc2C)c1
i	1.5	Cc1ccc(-c2nc(SCC(=O)NCCN3C(=O)CSC3=O)[nH]c2-c2ccc(C)cc2)cc1
i	0.08	COc1ccc(C(=O)NCCC2=CCCCC2)cc1
i	-0.46	O=C(NNC(=O)C1CC(=O)N(Cc2ccccc2)C1)c1ccc(Br)cc1 (stereo unspecified)
i	1.1	CN(C)C=NC(=O)c1ccc([N+](=O)[O-])c(CS(=O)(=O)c2ccc(Cl)cc2)c1
i	-1.6	Cc1ccc(S(=O)(=O)NCc2ccc(C(=O)NC3CCC(C)CC3)cc2)cc1 (stereo unspecified)
i	0.56	CCN(CC)S(=O)(=O)c1ccc(N(C)Cc2ccc(C(F)(F)F)cc2)nc1
i	1.6	O=C(COC(=O)CN1C(=O)C2CCCCC2C1=O)Nc1cc(S(=O)(=O)N2CCOCC2)ccc1Cl (stereo unspecified)
i	-0.7	O=C(CCOc1ccccc1)Nc1ccc(Br)cc1
i	-1.3	Cc1ccc(N(C(=O)c2cnccn2)C(C(=O)NC2CCCCC2)c2ccc(O)cc2)cc1 (stereo unspecified)
i	-0.03	CC(C)c1ccc(NC(=S)Nc2ccc(OC(F)(F)F)cc2)cc1
i	-0.02	Cc1nnc2n1NC(c1ccc(Cl)cc1)C(C(=O)N(C)C1CCCCC1)S2 (stereo unspecified)
i	-2.1	COc1ccc(CN2C(=O)C(CC(C)C)Nc3ncnc(N4CCN(c5ccccn5)CC4)c32)cc1 (stereo unspecified)
i	1.8	CCCCn1c(N)c(N(CC)C(=O)c2cc(S(=O)(=O)N3CCCCCC3)ccc2OC)c(=O)[nH]c1=O
i	-0.12	Cc1nc(SCC(=O)Nc2ccc(OCc3ccccc3)cc2)n[nH]1
i	-1.9	COc1ccc2cc(/C=N/NC(=O)c3ccc(CN(c4ccc(C)c(C)c4)S(C)(=O)=O)cc3)c(Cl)nc2c1
i	-0.01	O=C(COc1cc(O)c2c(=O)cc(-c3ccccc3)oc2c1)c1cccc([N+](=O)[O-])c1
i	-0.2	O=C(NC1CC1)c1ccc(Cl)c(S(=O)(=O)N2CCOCC2)c1
i	-1.8	COc1ccc(OCC(=O)N2CC3(C)CC2CC(C)(C)C3)cc1 (stereo unspecified)
i	-0.96	CC(=O)c1c(C)n(-c2ccc(N(C)C)cc2)c2ccc(OCC(N)=O)cc12
i	2.5	Cc1c2cnn(CC(=O)NCCCN3CC(C)CC(C)C3)c(=O)c2c(C)n1Cc1ccc(Cl)cc1 (stereo unspecified)
i	0.02	CC1CCN(C(=O)C2CCN(S(=O)(=O)c3cccc4nsnc34)CC2)CC1
i	0.53	Cc1nc2c(C(=O)NCc3cccs3)cnn2c(C)c1Cc1ccc(F)cc1

No new results follow: entries from further up.
KCNQ2 inh	KCNQ2 inh baseline	mol
i	1.8	CCCCn1c(N)c(N(CC)C(=O)c2cc(S(=O)(=O)N3CCCCCC3)ccc2OC)c(=O)[nH]c1=O
i	-0.12	Cc1nc(SCC(=O)Nc2ccc(OCc3ccccc3)cc2)n[nH]1
i	-1.9	COc1ccc2cc(/C=N/NC(=O)c3ccc(CN(c4ccc(C)c(C)c4)S(C)(=O)=O)cc3)c(Cl)nc2c1

Next part
KCNQ2 inh	KCNQ2 inh baseline	mol
i	-0.5	CN(C)C(=O)N1CCCC(C(=O)NCc2ccccc2Cl)C1 (stereo unspecified)
i	0.04	COc1cccc2c(SCC(=O)N/N=C/c3ccccc3)cc(C)nc12
i	-1.2	Cn1c(=O)[nH]c(=O)c2c1[nH]c(=S)n2CCCc1ccccc1
i	0.2	CCc1c(C)nc(Nc2nc(C)c3cc(OC)ccc3n2)[nH]c1=O
i	-0.05	CC(=O)N[C@@H](Cc1c[nH]c2ccccc12)C(=O)OCc1ccc(C#N)cc1
i	-0.01	CCC(=O)N1CCN(c2ccccc2NC(=O)c2cccs2)CC1
i	0.1	Cc1ccccc1N/C(=C(/C(Cl)=C(Cl)Cl)[N+](=O)[O-])n1nnc2ccccc21
i	0.59	CCOc1ccc(C(=O)Nc2cccc3ncccc23)cc1Cl
i	1.5	COc1ccc(N=Nc2c(C)n[nH]c2C)cc1
i	-0.21	CCOC(=O)c1nc(NNC(C)=O)sc1C
i	0.2	CCC(=O)Nc1ccc(N2CCCCC2)cc1
i	0.46	Cc1ccc(S(=O)(=O)NCC23C=CC(O2)C2C(=O)N(c4ccccc4)C(=O)C23)cc1 (stereo unspecified)
i	0.26	O=C(NCCCn1cccn1)C1CCC(=O)N(Cc2cccc(C(F)(F)F)c2)C1 (stereo unspecified)
i	0.68	CCC(c1nnnn1Cc1ccc2c(c1)OCO2)N1CCN(c2ccc(F)cc2)CC1 (stereo unspecified)
i	0.48	COc1ccc(NCC(=O)N/N=C/C=C\c2ccccc2)cc1
i	0.96	O=C(CNC(=O)c1ccncc1)N/N=C/c1cccc([N+](=O)[O-])c1
i	1.4	CCCCS(=O)(=O)N1C2=NC(C(=O)OC)=C(C(=O)OC)[C@@H]3N(C)c4ccc(OC)cc4[C@]23C[C@H]1C(=O)OC
i	0.02	O=C(NNC(=O)c1ccccc1Br)c1ccccc1Cl
i	1.2	Cc1cc(=O)oc2cc(OCC(=O)NCCCn3ccnc3)ccc12
i	0.73	O=C(Nc1cnn(Cc2ccc(Cl)c(Cl)c2)c1)C12CC3CC(CC(C3)C1)C2
i	1.3	COc1ccccc1C(=O)NCC1(c2ccccc2)CCCC1
i	-0.03	CN1CCC(N(C)S(=O)(=O)c2ccc(F)cc2F)CC1
i	-1.8	O=C(Nc1ccc(C(=O)N2CCOCC2)cc1)c1ccc([N+](=O)[O-])cc1
i	0.02	COc1ccccc1NC(=O)/C=C/c1ccc(OC)c(S(=O)(=O)N2CCOCC2)c1
i	3.1	Oc1ccccc1-c1nnc(COc2ccccc2)o1
i	-0.6	O=C(Nc1ccc(-c2ccc([N+](=O)[O-])cc2)cc1)c1ccccc1F
i	-0.2	CC(=O)Nc1cccc(NC(=O)C2CCCN2C(=O)Nc2ccc(C)cc2)c1 (stereo unspecified)
i	0.04	Cc1cccn2c(=O)c3cc(C(=O)NCCCOC(C)C)sc3nc12
i	0.1	Cc1cc(=O)[nH]c(SCC(=O)NN(c2ccccc2)c2ccccc2)n1
i	-0.48	CC(=O)c1c(O)c2ccccc2n(C2CCCCC2)c1=O
i	-0.56	Cc1nnc(NC(=O)CSc2nnc(Cc3cccn3C)n2C)s1
i	-0.55	Cc1ccc(C(=O)NCC(=O)NC23CC4CC(CC(C4)C2)C3)cc1
i	-2.4	CC1(C)C2CCC1(C)C(NC(=O)/C=C/c1ccccc1)C2 (stereo unspecified)
i	0.85	O=S(=O)(c1ccc(NC2CCCCC2)cc1)N1CCOCC1
i	-0.41	Cc1ccc(Cn2cnc3c(nnn3Cc3ccc(Cl)cc3)c2=O)cc1
i	-0.33	COc1ccc(C(=O)NNC(=S)NC(=O)c2ccc(Br)o2)cc1OC
i	0.02	CC(C)(C)c1ccc(OC(=O)c2ccc(-n3cncn3)nc2)cc1
i	-0.01	O=C(NCc1ccco1)c1cccc(Br)c1
i	-1.2	O=C(NNC1=NCCC1)c1ccc(Br)cc1
i	2.3	Cc1c(NC(=O)c2ccc(Br)o2)c(=O)n(-c2ccccc2)n1C

Next section, starting with the last 4 of the part before.
KCNQ2 inh	KCNQ2 inh baseline	mol
i	0.02	CC(C)(C)c1ccc(OC(=O)c2ccc(-n3cncn3)nc2)cc1
i	-0.01	O=C(NCc1ccco1)c1cccc(Br)c1
i	-1.2	O=C(NNC1=NCCC1)c1ccc(Br)cc1
i	2.3	Cc1c(NC(=O)c2ccc(Br)o2)c(=O)n(-c2ccccc2)n1C
i	-0.02	O=C(NCc1cn(-c2ccccc2)nc1-c1ccc(F)cc1)c1cccc([N+](=O)[O-])c1
i	-1.9	COc1cc(-c2nc(-c3ccc4c(c3)-c3ccccc3S4(=O)=O)c(-c3ccccc3)[nH]2)cc(OC)c1O
i	-0.11	C=CCOc1cccc(C2C(C(=O)c3ccco3)=C(O)C(=O)N2CCN(CC)CC)c1 (stereo unspecified)
i	-1.6	O=C1NC2(NN1c1ccccc1)C1CC3CC(C1)CC2C3 (stereo unspecified)
i	1.4	O=C(Cn1nnc(-c2ccccc2)n1)NNC(=O)c1ccccc1
i	0.33	COc1ccc(NC(=S)Nc2cc(C(F)(F)F)ccc2F)cc1

Copied from the list:
`O=C(COC(=O)C12CC3CC(CC(Br)(C3)C1)C2)Nc1cccnc1Cl` – KCNQ2 inh baseline = 0.94
`O=C(CNC(=O)c1ccncc1)N/N=C/c1cccc([N+](=O)[O-])c1` – KCNQ2 inh baseline = 0.96
